Assay outcomes from PubChem BioAssay.
AF4-AF9 inh = inhibitors of AF4 peptide binding to AF9, primary screen, biochemical, AlphaScreen, biotin-AF4 peptide, FLAG-AF9, single point | inhibition, % at 10 µM | 350,000 compounds, 0.47% hits | AID 651704, 2012;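 active means every replicate reaching a set inhibition limit, whatever the replicate mean, cut at about 25% in these data; inconclusive means mean inhibition reaches that limit but some replicates miss it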;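 further: 0% = plate neutral control median and 100% = total signal loss; the record names both 10 and 1 µM as test concentration; the first replicate is given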
Calb FLC = C. albicans growth inhibition with fluconazole, primary screen, CaCi-2 strain, Alamar Blue fluorescence. C. albicans CaCi-2 (fluconazole-resistant clinical isolate) + fluconazole, 48 h. growth inhibition, % (concentration not given with the values). 300,000 compounds, 0.57% hits. AID 1979, 2009;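 active means most replicates above 75%; inconclusive means exactly half above 75%; inactive means most below 75%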;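 further: all wells also contain fluconazole at 8 µg/ml as a sub-toxic cotreatment; 0% = median of DMSO wells and 100% = median of geldanamycin control wells; wells of about 8 µL received 7.5 nL stock; the first replicate is given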
RanGTP-Imp inh = inhibitors of RanGTP-importin-beta interaction, primary screen, biochemical, FRET, CFP-Ran, YFP-importin-beta, homogeneous; Ran GTPase (GTP-bound) - importin-beta complex; cell-free CFP-Ran/YFP-importin-beta FRET ratio; inhibition, % (no concentration beside the values); 300,000 compounds, 1.1% hits; AID 2216, 2009;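 active means most replicates above 15%; inconclusive means exactly half above 15%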;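 further: 0% = DMSO wells and 100% = Ran loaded with GDP instead of GTP; wells of about 40 µL received 100 nL stock; the first replicate is given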
LANA-H2A inh = blockers of LANA interaction with H2A/H2B – biochemical, FP readout, HTS, primary screen; 320,000 compounds, 0.6% hits; cell-free LANA-H2A/H2B peptide, fluorescence polarization; Protein LANA1 (Human herpesvirus 8 type P (isolate GK18)), Q9QR71; AID 2629, 2010; inhibition, % (test concentration not listed); in the data active means inhibition mostly above about 10%, no sharp cut-off; inactive means mostly below about 6.7%;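 further: stock transfer was 7.5 nL into about 10 µL; 0% = median of vehicle wells and 100% = median of positive control wells; one replicate is shown; the record names a cut of 25% in any replicate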
Target sequence (Q9QR71 whole entry, looked up): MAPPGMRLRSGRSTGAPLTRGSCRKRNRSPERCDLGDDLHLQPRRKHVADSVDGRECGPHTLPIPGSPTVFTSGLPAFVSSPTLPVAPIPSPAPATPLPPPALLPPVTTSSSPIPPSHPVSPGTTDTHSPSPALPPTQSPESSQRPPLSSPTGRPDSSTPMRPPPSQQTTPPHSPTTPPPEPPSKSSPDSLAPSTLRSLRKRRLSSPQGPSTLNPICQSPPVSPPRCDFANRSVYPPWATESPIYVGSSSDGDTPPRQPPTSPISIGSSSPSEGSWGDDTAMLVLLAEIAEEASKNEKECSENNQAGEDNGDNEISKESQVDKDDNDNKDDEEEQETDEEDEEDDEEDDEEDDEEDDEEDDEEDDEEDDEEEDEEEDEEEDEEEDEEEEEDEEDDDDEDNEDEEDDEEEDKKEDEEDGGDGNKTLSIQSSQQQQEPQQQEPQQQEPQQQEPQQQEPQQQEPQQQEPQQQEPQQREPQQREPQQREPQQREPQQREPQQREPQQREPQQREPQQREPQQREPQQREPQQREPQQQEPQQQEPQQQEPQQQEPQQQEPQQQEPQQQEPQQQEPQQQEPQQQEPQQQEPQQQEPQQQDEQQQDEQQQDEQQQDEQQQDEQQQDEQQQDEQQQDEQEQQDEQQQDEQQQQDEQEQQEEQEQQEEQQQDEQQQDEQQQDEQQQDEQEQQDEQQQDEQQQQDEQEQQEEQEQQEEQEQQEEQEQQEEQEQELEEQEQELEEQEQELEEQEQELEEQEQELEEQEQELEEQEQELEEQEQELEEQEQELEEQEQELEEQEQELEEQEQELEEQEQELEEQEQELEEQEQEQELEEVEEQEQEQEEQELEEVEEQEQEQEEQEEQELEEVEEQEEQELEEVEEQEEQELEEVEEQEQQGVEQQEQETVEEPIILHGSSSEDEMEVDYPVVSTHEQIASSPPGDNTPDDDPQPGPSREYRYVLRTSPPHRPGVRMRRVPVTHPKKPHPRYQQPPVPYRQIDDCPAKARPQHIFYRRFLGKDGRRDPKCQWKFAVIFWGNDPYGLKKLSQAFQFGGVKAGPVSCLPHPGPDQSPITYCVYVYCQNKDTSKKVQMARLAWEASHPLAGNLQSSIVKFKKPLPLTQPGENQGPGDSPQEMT
Beta apoptosis = inhibitors of cytokine-induced beta cell apoptosis, primary screen, luminescence. INS-1E cytokine-induced death, ATP luminescence, 48 h; percent of positive-control rescue, neutral wells zero. protection from apoptosis, % (no concentration beside the values). 300,000 compounds, 0.8% hits. AID 435005, 2010;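 active means all replicates at 75% or more, or half of them and the mean; inconclusive means half reach 75% but not the mean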;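 further: 0% = cytokine-treated negative control wells and 100% = positive control rescue; higher means more ATP so stronger rescue from cytokine killing; wells of about 40 µL received 100 nL stock; the first replicate is given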
Vif A3G = inhibitors of Vif binding to APOBEC3G peptide, primary screen, biochemical, TR-FRET, GST-Vif 1-94, biotin-A3G peptide, dose response retest (AID 1117319); TR-FRET GST-Vif / biotin-A3G peptide binding; higher % means a stronger effect; test concentration not given here; strong numbers were not always called active; Virion infectivity factor (Human immunodeficiency virus type 1 group M subtype B (isolate …; 260,000 compounds, 0.57% hits; inhibition, %, or IC50 in µM where a hit was titrated;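 active means above the screen mean plus three standard deviations and confirmed in dose response; inconclusive means results disagree or hit not tested in dose response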;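 further: Vif residues 1-94 fused to GST binding biotinylated APOBEC3G peptide 110-148; 0% = full assay without inhibitor and 100% = GST in place of GST-Vif; retest series ran down from 100 µM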
Bfl-1 A1 inh = caspase 3/7 activation in MEF A1-2A-BIM cells, primary screen, A1 inhibitor project, cell-based, luminescence, HTS | Caspase-Glo 3/7 luminescence, 3 h; percent of clofoctol response, vehicle zero | caspase activation, % (no concentration beside the values) | AID 2462, 2010 | 330,000 compounds, 0.066% hits;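 active means over half of replicate activation scores above 10%, or exactly half above 10 with the replicate mean above 10; inconclusive means replicate mean below 10 yet half the replicates above 10; inactive means over half of replicates below 10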;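 further: wells of about 30 µL received 50 nL stock; many hits fall short of the cut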
T cruzi repl = inhibitors of intracellular T. cruzi growth, primary screen, luminescence, NIH3T3 host cells. T. cruzi beta-gal in NIH3T3, 90 h. inhibition, % (no concentration beside the values). 300,000 compounds, 1.4% hits. AID 1885, 2009;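 active means mean inhibition across valid replicates above about 55%, limit read from the data; inconclusive means mean below that limit but half or more replicates reach it; inactive means mean below it, under half of replicates reach it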;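 further: signal also drops with host cell toxicity which is not excluded here; 0% = plate median of DMSO wells and 100% = zero luminescence signal; higher percent means less beta-gal luminescence so fewer parasites; stock transfer was 50 nL into about 50 µL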
* marks the source's active call; other numbers are inactive results; ? = inconclusive; . = not tested or not shown; & = joins results of further samples. Rows were taken by chance. Share with any hit: about 4.3%.

canonical_smiles | AF4-AF9 inh | Calb FLC | RanGTP-Imp inh | LANA-H2A inh | Beta apoptosis | Vif A3G | Bfl-1 A1 inh | T cruzi repl
Cc1ccc(-c2nn(C)c(=O)c3ccccc23)cc1S(=O)(=O)NCCN(C)C | -0.1 | -10 | 3.7 | 2.5 | -6 | . | -0.1 | 38
O=S(=O)(Nc1ncn[nH]1)c1ccc2ccccc2c1 | . | -2 | -3.5 | -0.2 | -4 | -5% | 0.8 | -10
CCOC(=O)Cn1c(=NC(=O)CSC(C)=O)sc2cc(OC)ccc21 | . | -11 | 4.4 | -1.5 | 3 | -5% | -0.1 | -9
CN1CCc2c(c3c(n2C)CCN(C)C3c2ccc(F)cc2)C1c1ccc(F)cc1 (stereo not drawn) | . | 37 | -0.7 | 0.5 | -1 | 20% | -0.1 | -13
Cc1ccc(C(=O)c2oc3ccccc3c2NC(=O)c2cc(-c3ccccc3O)n[nH]2)cc1 | . | -5 | 0.8 | 0.9 | 7 | -3% | 0.0 | 24
O=C(NC(=S)Nc1ccccn1)c1cc(-c2ccccc2)nc2ccccc12 | . | 18 | -0.8 | -8.0 | 7 | . | 0.2 | -5
O=C(CSCc1ccccc1F)NCc1ccc(F)cc1 | -2.5 | -39 | -1.9 | -0.5 | 2 | . | 1.2 | -4
CCOC(=O)c1c(NC(=O)CN2CCN(c3ccc(Cl)cc3)CC2)sc(C)c1C | . | 4 | 3.4 | -3.1 | 0 | ? | 0.2 | 13
CCOC(=O)N1CCN(C(=O)c2ccc3c(=O)n(-c4ccccc4F)c(=S)[nH]c3c2)CC1 | -1.7 | 1 | 3.1 | 9.7 | -22 | -5% | -0.1 | 14
CC(C)(C)NS(=O)(=O)c1cccc2nsnc12 | . | -11 | 1.1 | 3.1 | -14 | . | -0.2 | -2
Cc1cc(C)c(NC2=NCC(=O)N2C2CCCCC2)c(C)c1 | . | -8 | 1.2 | 4.1 | -5 | -4% | 0.8 | -7
O=C1NC(=O)C(Nc2cccc3ccccc23)S1 (stereo not drawn) | . | 30 | 2.7 | 0.6 | -1 | 7% | 0.6 | -9
CCO[C@H]1OC(C(=O)N2CCN(Cc3ccccc3)CC2)=C[C@@H](c2cn(C(C)=O)c3ccccc23)[C@@H]1CCCO | 0.0 | 6 | 3.7 | 0.2 | 6 | 0% | -0.6 | 13
COC(=O)/C=C1/S/C(=N/NC(=O)c2ccccc2OC)NC1=O | -3.3 | 4 | -4.1 | 5.5 | -19 | . | -1.1 | -4
COc1ccc(N=C(NN)c2ccc3ccccc3n2)cc1 | 4.3 | -11 | -2.1 | -3.8 | 10 | . | -1.0 | 2
CC(=O)Nc1ccc(S(=O)(=O)NCc2cc(=O)n(C)c(=O)n2C)cc1 | -0.2 | -5 | 3.2 | -5.3 | -4 | . | -0.1 | -21
CC(C)C(=O)NC(c1ccco1)c1ccc2cccnc2c1O (stereo not drawn) | . | 98* | 0.3 | 2.3 | 117* | 20% | -0.8 | 50
O=C(CN1C(=O)c2ccccc2S1(=O)=O)Nc1ccc(S(=O)(=O)N2CCCC2)cc1 | . | 11 | 9.1 | 11 | -2 | 1% | -0.4 | -6
CCc1nc2ccccc2c(C(=O)Nc2cccc(C)c2)c1C | -2.5 | -14 | 8.1 | 3.6 | 1 | -6% | 0.6 | -6
CCOc1ccccc1C(=O)NCC(=O)NCC(c1ccc(OC)cc1)N1CCOCC1 (stereo not drawn) | -17 | -3 | 2.5 | 4.3 | -1 | -3% | -0.2 | -12
COc1ccc(C(C)=O)cc1COC(=O)CSCC(=O)Nc1ccc(C)cc1 | 4.4 | 1 | -0.3 | 1.8 | -6 | 2% | 0.6 | -5
COc1ccccc1-c1ccc(C(=O)O)o1 | . | 1 | -5.5 | -4.1 | -2 | 3% | 0.4 | 2
CCCCc1cc(=O)oc2cc(C)cc(OCC(=O)NC(Cc3ccc(Cl)cc3)C(=O)O)c12 (stereo not drawn) | -2.3 | -1 | -4.6 | 5.2 | -5 | . | 0.7 | 5
C=CCNC(=S)N(C1CCCCC1)C1CCCCC1 | -6.2 | 26 | 0.0 | 0.0 | -1 | 15% | 1.0 | -7
Cc1cc2c(s1)c1cnn(CC(=O)NCCc3ccccc3)c(=O)c1n2C | . | 5 | -2.8 | 0.3 | -7 | -23% | -0.2 | 1
C/C(=N\NC(=O)c1cccc2ccccc12)c1cccnc1 | 0.9 | 5 | 1.0 | . | . | 2% | . | -1
O=C(NCC1CCCO1)C(c1cccs1)N(C(=O)c1ccc(-c2ccccc2)[nH]1)C1CCCC1 (stereo not drawn) | . | 25 | 3.0 | 0.5 | -10 | . | 0.1 | 15
Cc1onc(-c2ccccc2)c1C(=O)c1c[nH]c(C(=O)NCc2ccccn2)c1 | -0.9 | 5 | 0.0 | -1.1 | . | -8% | 0.5 | -15
C/C(=N\S(=O)(=O)c1ccc(C)cc1)NC(=S)Nc1ccccc1 | -0.4 | -23 | -0.9 | -2.0 | -4 | -1% | -0.7 | -10
CC(=O)N/C(=C/c1ccc2c(c1)OCO2)C(=O)O | -1.9 | -7 | 3.4 | 7.1 | 2 | 15% | 0.2 | -18

4 entries from above, field by field:
canonical_smiles: C=CCNC(=S)N(C1CCCCC1)C1CCCCC1
  AF4-AF9 inh = -6.2 | Calb FLC = 26 | RanGTP-Imp inh = 0.0 | LANA-H2A inh = 0.0 | Beta apoptosis = -1 | Vif A3G = 15% | Bfl-1 A1 inh = 1.0 | T cruzi repl = -7
canonical_smiles: Cc1cc2c(s1)c1cnn(CC(=O)NCCc3ccccc3)c(=O)c1n2C
  AF4-AF9 inh = . | Calb FLC = 5 | RanGTP-Imp inh = -2.8 | LANA-H2A inh = 0.3 | Beta apoptosis = -7 | Vif A3G = -23% | Bfl-1 A1 inh = -0.2 | T cruzi repl = 1
canonical_smiles: C/C(=N\NC(=O)c1cccc2ccccc12)c1cccnc1
  AF4-AF9 inh = 0.9 | Calb FLC = 5 | RanGTP-Imp inh = 1.0 | LANA-H2A inh = . | Beta apoptosis = . | Vif A3G = 2% | Bfl-1 A1 inh = . | T cruzi repl = -1
canonical_smiles: O=C(NCC1CCCO1)C(c1cccs1)N(C(=O)c1ccc(-c2ccccc2)[nH]1)C1CCCC1 (stereo not drawn)
  AF4-AF9 inh = . | Calb FLC = 25 | RanGTP-Imp inh = 3.0 | LANA-H2A inh = 0.5 | Beta apoptosis = -10 | Vif A3G = . | Bfl-1 A1 inh = 0.1 | T cruzi repl = 15

Later entries
canonical_smiles | AF4-AF9 inh | Calb FLC | RanGTP-Imp inh | LANA-H2A inh | Beta apoptosis | Vif A3G | Bfl-1 A1 inh | T cruzi repl
COC(=O)CN1C(c2ccccc2)=Nc2ccc(Cl)cc2C1c1ccccc1 (stereo not drawn) | . | 7 | 1.7 | -1.0 | 3 | 0% | 0.4 | 19
COC(=O)CSc1nnc(C)n1-c1cccc(OC)c1 | . | -12 | 1.0 | -2.2 | 2 | 13% | 1.3 | -8
COc1ccc2cc(/C=C3\SC(=S)NC3=O)c(N3CCOCC3)nc2c1 | 3.6 | 17 | -17 | 1.7 | 27 | . | 0.6 | -17
Cc1cc(C)cc(NCc2cc3c(cc2[N+](=O)[O-])OCO3)c1 | . | 1 | -0.1 | 1.1 | -8 | ? | -0.2 | -9
COc1ccc(C)cc1NC(=O)C(Sc1nncn1C)c1ccccc1 (stereo not drawn) | -1.2 | -5 | -3.9 | -2.5 | 0 | 8% | 1.0 | -1
Cc1ccccc1C(=O)N/N=C1/SCC(=O)N1Cc1ccc2c(c1)OCO2 | 2.4 | 6 | -1.1 | -7.0 | 5 | 24% | 0.6 | -17
COc1ccc(-n2ccnc2CN2CCN(C3CCCC3)C(CCO)C2)cc1 (stereo not drawn) | -15 | -2 | 1.6 | -2.5 | 4 | 1% | -0.4 | -14
CCOC(=O)N1CCN(S(=O)(=O)c2ccc3c(c2)CC(C)N3C(C)=O)CC1 (stereo not drawn) | 1.3 | -21 | -2.6 | 2.3 | 5 | . | 2.3 | -8
CCOc1cc(NS(=O)(=O)c2ccc(Cl)cc2)c(OCC)cc1NC(=O)CC(C)C | . | 7 | ? | 3.3 | -1 | 32% | -0.2 | 11
Cc1onc(C(=O)NCc2ccccn2)c1[N+](=O)[O-] | 0.9 | -4 | -1.1 | 1.6 | -9 | -2% | -0.2 | -17
COC(=O)CCN(C(=O)c1ccc(N2CCCCC2)c([N+](=O)[O-])c1)c1ccccn1 | 7.4 | 20 | 2.5 | 3.5 | 1 | -7% | 1.6 | 8
Cc1ccc(S(=O)(=O)N2CCC(C(=O)OC(C)C(=O)NC(N)=O)CC2)cc1C (stereo not drawn) | 3.3 | -5 | 5.4 | 4.5 | -6 | . | -0.4 | -28
CC(=O)c1c(O)cc(=O)n(-c2ccccc2)c1-c1ccc(Cl)cc1 | . | 7 | -4.1 | 3.2 | 1 | 5% | 0.2 | -3
O=C1CCCN1CC(O)CS(=O)(=O)Cc1ccccc1Cl (stereo not drawn) | 0.4 | -11 | 6.0 | -2.2 | 1 | 0% | 1.1 | -10
Clc1ccc(-c2nnc(NCc3ccccc3)c3ccccc23)cc1 | . | 1 | ? | 0.0 | 36 | . | 1.3 | 32
Cc1cc(C(=O)CSc2nnc(-c3cccs3)o2)c(C)n1-c1ccccc1 | . | -7 | -2.1 | -2.7 | -6 | -1%&23% | -0.3 | 21
Cc1cc(C)c2c(=O)[nH]c(SCC(=O)Nc3cccc(S(=O)(=O)N(C)C)c3)nc2n1 | -2.9 | . | . | 2.9 | 1 | . | -0.2 | .
O=C(Cn1cnc2c(cnn2-c2ccc(Cl)cc2)c1=O)NCCc1ccccc1 | . | 5 | -3.1 | -0.9 | 1 | 0% | -0.1 | 2
CC(C)=C1C2CCC1C1C(=O)N(c3nc(-c4ccc(F)cc4)c(C)s3)C(=O)C21 (stereo not drawn) | . | -2 | -0.7 | -2.4 | -1 | -3% | 1.5 | 3
CCc1ccccc1NC(=O)Nc1ccon1 | -0.9 | 11 | -2.3 | -6.1 | -5 | . | 0.8 | -5
CC(C)CN(C)C(=O)CCc1nnc(Cc2ccc(-c3ccccc3)cc2)o1 | -0.8 | 4 | 0.7 | 2.4 | -5 | . | 0.8 | 17
CC(NC(=O)c1cccc(Cn2cc([N+](=O)[O-])cn2)c1)c1ccc(C(C)(C)C)cc1 (stereo not drawn) | -55 | -29 | -1.7 | 1.1 | 3 | 12% | -0.3 | 55*
CCn1c(=S)ccc2ccc(OC)cc21 | . | 1 | -2.0 | 14 | -1 | -3% | -0.3 | -15
CC(Cc1c[nH]c2ccccc12)NC(N)=O (stereo not drawn) | 0.7 | -15 | 5.5 | 3.1 | -7 | 20% | -0.8 | -5
